GLA inh pH 4.5: blocks human alpha-galactosidase A at pH 4.5. AID 1467. activity change, negative = inhibition, % at 105 µM. P06280. 230,000 tested, under 10 active. purified enzyme, 4-MU-alpha-Gal fluorescence, pH 4.5; inconclusive = small, poorly fitted or top-dose-only inhibition, or a rising curve; inactive = flat fitted curve, though single readings scatter; no compound was filed as active;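 note: 0% = full activity with enzyme and -100% = basal without enzyme; dose as in the result columns while the protocol names 77 µM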
Rango-impB inh: inhibitors of Rango-importin beta complex formation; 0.031% of 340,000 active; AID 540263; Q14974; Rango CFP/YFP FRET sensor + importin beta, 45 min; Potency, µM (highest dose often 92.2 µM), inactives show top-dose inhibition of complex formation; active = rising FRET ratio curve, often small or poorly fitted; inconclusive = mostly compound fluorescence or quenching in the first reads; inactive = flat curves in all reads;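 note: potency is the fitted concentration of half-maximal effect; 0% = DMSO wells and 100% = buffer wells lacking importin beta; nearly all actives have a fitted effect of over 15% in size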
Target sequence (Q14974 whole entry, looked up): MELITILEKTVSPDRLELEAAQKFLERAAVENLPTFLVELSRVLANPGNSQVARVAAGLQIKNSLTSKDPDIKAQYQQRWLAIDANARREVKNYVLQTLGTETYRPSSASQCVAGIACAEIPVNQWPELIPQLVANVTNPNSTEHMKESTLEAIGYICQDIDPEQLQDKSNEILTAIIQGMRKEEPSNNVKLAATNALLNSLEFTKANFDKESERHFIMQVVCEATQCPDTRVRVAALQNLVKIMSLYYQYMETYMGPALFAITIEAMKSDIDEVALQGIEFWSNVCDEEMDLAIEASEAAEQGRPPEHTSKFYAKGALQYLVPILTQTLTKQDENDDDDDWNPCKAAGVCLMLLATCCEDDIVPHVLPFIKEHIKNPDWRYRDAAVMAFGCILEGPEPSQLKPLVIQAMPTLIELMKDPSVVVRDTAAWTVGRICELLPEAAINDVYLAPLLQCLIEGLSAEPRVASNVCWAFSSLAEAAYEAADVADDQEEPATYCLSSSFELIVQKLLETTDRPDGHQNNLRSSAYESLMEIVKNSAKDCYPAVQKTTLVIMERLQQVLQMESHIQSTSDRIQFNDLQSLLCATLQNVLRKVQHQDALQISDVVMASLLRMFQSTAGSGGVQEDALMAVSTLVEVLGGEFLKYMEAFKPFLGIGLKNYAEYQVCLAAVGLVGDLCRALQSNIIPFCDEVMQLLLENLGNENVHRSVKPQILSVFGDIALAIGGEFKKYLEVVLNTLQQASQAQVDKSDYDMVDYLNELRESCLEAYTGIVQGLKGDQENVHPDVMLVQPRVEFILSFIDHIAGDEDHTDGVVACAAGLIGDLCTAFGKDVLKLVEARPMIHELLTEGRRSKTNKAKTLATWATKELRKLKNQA
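Inhibition scored from the CFP 486 nm/YFP 530 nm FRET ratio 45 min after adding 0.125 microM importin beta to 50 nM Rango biosensor preincubated 5 min with compound (room temperature, PBS with DTT, Tween-20, BSA). No-importin wells as positive control.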
miR-21 reporter: miR-21 reporter, rising signal; HeLa miR-21 FLuc reporter, luciferase, 48 h; Potency, µM (series often up to 38.3 µM), for inactives: at the top dose reporter change, positive = more light; 340,000 tested, under 10 active; active = well fitted rising curve with a large enough effect; inconclusive = small, poorly fitted or top-dose-only effect; inactive = no such curve, though single readings can be large or run the other way;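 note: % of control where 0% means no effect; miR-21 action dims this reporter so a rising signal means less miR-21 action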
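Compounds were titrated across several concentrations (up to approximately 40 uM) and incubated 48 hours with HeLa miR-21-FLuc reporter cells (miR-21 target sequence downstream of FLuc, endogenous miR-21). Readout was firefly luciferase luminescence after lytic detection reagent.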
Rango dissoc inh: prevents RanGTP from dissociating the Rango-importin beta complex; O95149+P62826; Biochemical FRET Rango-importin beta, RanGTP-induced dissociation; Potency, µM (top dose mostly 46.1 µM), without a hit: at the top dose activity change, negative = inhibition; 0.071% of 340,000 active; AID 540253; active means falling FRET ratio curve, often poorly fitted, with flat reads before Ran was added; inconclusive means other falling curves, or compound fluorescence or quenching; inactive means flat or rising ratio curve;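 note: potency is the fitted concentration of half-maximal effect; % of control where 0% means no effect; nearly all actives have a fitted effect of over 45% in size; -100% = wells without RanGTP and RCC1; the record marks most hits as doubtful in a second field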
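Recombinant Rango FRET biosensor (EYFP–snurportin 1 IBB–cerulean CFP10) at 0.1 uM premixed with 0.25 uM importin beta in PBS, 1 mM DTT, 0.02% Tween-20, 0.1% BSA. Compound added 5 min; RanGTP-RCC1 (0.6 uM Ran, 2 mM GTP, 0.2 uM RCC1) then triggers release, read at 45 min.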
Starred values were filed as active, the others as inactive; & = joins results of further samples; [ ] = remark or other dose.

CCc1nnc(NC(=O)CC(C)c2ccccc2)s1 (configuration not stated) was read as Rango-impB inh 9.2%, miR-21 reporter -12% and Rango dissoc inh -15%.
`O=C1CC(=O)N(CCc2ccc(F)cc2)C(=O)N1` gave GLA inh pH 4.5 -3, Rango-impB inh 1.4%, miR-21 reporter -1% and Rango dissoc inh 3%.
CCn1cnc2cc([N+](=O)[O-])ccc21 was read as GLA inh pH 4.5 2, Rango-impB inh -2.9%, miR-21 reporter -5% and Rango dissoc inh 0%.
`CCOc1ccc(C(=O)Nc2ccc(-c3nc4ccccc4[nH]3)cc2)cc1[N+](=O)[O-]` gave GLA inh pH 4.5 4, Rango-impB inh -2.6%, miR-21 reporter -31% and Rango dissoc inh 0%.
Screening CCOC(=O)c1sc(NC(=O)C(C)C)c(C#N)c1C returned GLA inh pH 4.5 6, Rango-impB inh 1.6%, miR-21 reporter -3% and Rango dissoc inh 5%.
Screening CC1(C)NC(=O)N(CC(=O)O)C1=O returned GLA inh pH 4.5 1, Rango-impB inh inconclusive, miR-21 reporter -3% and Rango dissoc inh 29%.
O=C(N/N=C/c1cc([N+](=O)[O-])ccc1O)c1cc(-c2ccccc2)nc2ccccc12 was read as GLA inh pH 4.5 -14, Rango-impB inh inconclusive, miR-21 reporter -1% and Rango dissoc inh inconclusive.
For CCOc1ccc(CCNC(=O)COC(=O)Cn2nc(C)c([N+](=O)[O-])c2C)cc1OCC the results were Rango-impB inh -0.8% and Rango dissoc inh -23%.
`CCOc1ccc(NC(=O)Nc2cc(C)ccc2F)cc1` gave GLA inh pH 4.5 2, Rango-impB inh 1.4%, miR-21 reporter -69% and Rango dissoc inh -4%.
For Nc1nc(NC(=O)/C=C/c2ccc(F)cc2)nn1-c1ccccc1 the results were GLA inh pH 4.5 1, Rango-impB inh 8.5%, miR-21 reporter 6% and Rango dissoc inh 1%.
`Cc1c(C(=O)NC(C)C)oc2c1-c1[nH]ncc1CC2` gave GLA inh pH 4.5 -8, Rango-impB inh 0.6%, miR-21 reporter -1% and Rango dissoc inh -17%.
For Cc1ccc(S(=O)(=O)N(C)C[C@@H]2Oc3c(NC(=O)C4CC4)cccc3C(=O)N([C@@H](C)CO)C[C@@H]2C)cc1 the results were Rango-impB inh 0.2% and Rango dissoc inh -8%.
Screening COC(=O)COc1ccc(C(=O)OC)cc1 returned GLA inh pH 4.5 -4, Rango-impB inh 0.0%, miR-21 reporter -2% and Rango dissoc inh 6%.
`CC(c1ccco1)N(C(=O)C12CC3CC(CC(C)(C3)C1)C2)c1ccccn1` (configuration not stated) gave GLA inh pH 4.5 -3, Rango-impB inh -1.1%, miR-21 reporter 0% and Rango dissoc inh 15%.
Screening O=C(NC(=S)NC1CCCc2ccccc21)c1ccc(F)cc1 (configuration not stated) returned Rango-impB inh 2.8%, miR-21 reporter 10% and Rango dissoc inh 3%.
`COc1ccc(N2CCN(C(=O)c3ccc(NC(=O)C4=CSCCO4)cc3)CC2)cc1` gave Rango-impB inh 0.4%, miR-21 reporter -9% and Rango dissoc inh 5%.
Screening CC(=O)Nc1cc(NC(C)=O)c(N=Nc2ccccc2)cc1C returned GLA inh pH 4.5 -5, Rango-impB inh -4.5%, miR-21 reporter -51% and Rango dissoc inh -15%.
Screening CCc1ccc(OCCCC(=O)Nc2ccc(S(=O)(=O)Nc3cc(C)nc(C)n3)cc2)cc1 returned Rango-impB inh 3.8%, miR-21 reporter -6% and Rango dissoc inh 1%.
For O=C(NN1C(=O)/C(=C/c2cccnc2)SC1=S)C(c1ccccc1)c1ccccc1 the results were GLA inh pH 4.5 -8, Rango-impB inh 4.0%, miR-21 reporter 3% and Rango dissoc inh 1%.
CC(C)Cc1ccc(/C=C/C(=O)N2CCCCC2)cc1 was read as GLA inh pH 4.5 2, Rango-impB inh -0.2%, miR-21 reporter -56% and Rango dissoc inh 6%.
Cc1ccc(N(CC(=O)NCc2ccc(F)cc2)S(=O)(=O)c2c(C)nn(C)c2C)cc1 was read as Rango-impB inh -0.5%, miR-21 reporter 4%&-4% and Rango dissoc inh -3%.
For CCCc1cc(C(=O)Nc2cc(OC)ccc2OC)cs1 the results were Rango-impB inh 3.5%, miR-21 reporter -24% and Rango dissoc inh 10%.
For CN(Cc1nc(-c2ccccc2)no1)C(=O)c1ccco1 the results were Rango-impB inh -3.5%, miR-21 reporter -19% and Rango dissoc inh 5%.
`O=C(NCCc1cccc(F)c1)C1CCN(S(=O)(=O)c2ccccc2)CC1` gave Rango-impB inh -1.7%, miR-21 reporter 0% and Rango dissoc inh -8%.
Screening S=c1oc(-c2ccncc2)nn1CCc1ccncc1 returned GLA inh pH 4.5 2, Rango-impB inh 0.1%, miR-21 reporter -4% and Rango dissoc inh -6%.
`O=C1CCC/C1=c1\s/c(=C/c2cccnc2)c(=O)n1-c1ccccc1` gave Rango-impB inh inconclusive and Rango dissoc inh -25%.
CN(c1ccc(F)cc1)S(=O)(=O)c1ccc(Cl)c(C(=O)OCC(=O)NCc2ccco2)c1 was read as GLA inh pH 4.5 -14, Rango-impB inh 0.8%, miR-21 reporter 0% and Rango dissoc inh 4%.
For CN(C(=O)CSCC(=O)Nc1ccc(Cl)cc1)C1CCCCC1 the results were Rango-impB inh -1.4% and Rango dissoc inh 3%.
`COc1ccc2cc(C3(C)NC(=O)N(CC(=O)NCC(F)(F)F)C3=O)ccc2c1` (configuration not stated) gave Rango-impB inh 0.8%, miR-21 reporter -8% and Rango dissoc inh 4%.
Screening Oc1ccc(CN2CCCCC2)c2cccnc12 returned GLA inh pH 4.5 3, Rango-impB inh -4.5%, miR-21 reporter inconclusive and Rango dissoc inh 3%.
CCNC(=O)NC(C(=O)OC)C12CC3CC(CC(C3)C1)C2 (configuration not stated) was read as GLA inh pH 4.5 -10, Rango-impB inh -5.1%, miR-21 reporter -4% and Rango dissoc inh -1%.
Screening Cc1cc(C(=O)OCC(=O)NC(C)C)c2ccccc2n1 returned GLA inh pH 4.5 3, Rango-impB inh -1.6%, miR-21 reporter 3% and Rango dissoc inh -8%.
O=C(COC(=O)COc1ccc(Cl)cc1Cl)NC1CCCCCC1 was read as Rango-impB inh 1.8% and Rango dissoc inh 12%.
`C/C(Cl)=C\CNC(C)c1ccccc1` (configuration not stated) gave GLA inh pH 4.5 0, Rango-impB inh -0.1%, miR-21 reporter -2% and Rango dissoc inh 0%.
For O=C(COC(=O)/C=C/c1ccc(Cl)c(Cl)c1)NC1CCCC1 the results were Rango-impB inh 0.1% and Rango dissoc inh -15%.
`COc1ccc(C2NC(=S)NC(C)=C2C(=O)N2CCOCC2)cc1` (configuration not stated) gave GLA inh pH 4.5 -8[21.1 µM], Rango-impB inh 1.4%, miR-21 reporter 0% and Rango dissoc inh 5%.
CN1C(C(=O)Nc2ccc(C(=O)O)cc2)=C(O)c2ccccc2S1(=O)=O was read as Rango-impB inh -0.2% and Rango dissoc inh -25%.
`CNC(=S)NNC(=O)c1ccccc1Cl` gave GLA inh pH 4.5 -12, Rango-impB inh -6.0%, miR-21 reporter 0% and Rango dissoc inh 16%.
Screening CCN(CC)S(=O)(=O)c1ccc(NC(=O)CN(c2cccc(F)c2)S(C)(=O)=O)cc1 returned GLA inh pH 4.5 -14, Rango-impB inh 0.1%, miR-21 reporter -1% and Rango dissoc inh -4%.
`COc1cccc(NC(=O)NCCCN2CCN(c3ccc(F)cc3)CC2)c1` gave GLA inh pH 4.5 1, Rango-impB inh -3.9%, miR-21 reporter -3% and Rango dissoc inh 4%.
c1ccc(N(c2ccccc2)c2nc(N3CCCC3)nc(-n3ccnc3)n2)cc1 was read as GLA inh pH 4.5 -2, Rango-impB inh -2.3%, miR-21 reporter 1% and Rango dissoc inh 3%.
`CCN(CC)CCCNC(=O)CN1N=C(c2ccc(OC)cc2)CCC1=O` gave Rango-impB inh -5.6%, miR-21 reporter -1%&0% and Rango dissoc inh 5%.
Screening Cc1ccc(/C=C/c2nc3ccccc3c(=O)n2CCc2ccccc2)cc1 returned GLA inh pH 4.5 -15, Rango-impB inh inconclusive, miR-21 reporter -12% and Rango dissoc inh -4%.
Screening Cc1ccc(S(=O)(=O)Oc2ccc(/C=N/NC(=O)c3ccncc3)cc2)cc1 returned Rango-impB inh 0.5%, miR-21 reporter -2% and Rango dissoc inh 1%.
O=C(COc1cccnc1[N+](=O)[O-])NCc1ccc2c(c1)OCO2 was read as GLA inh pH 4.5 5, Rango-impB inh -0.6%, miR-21 reporter 0% and Rango dissoc inh 0%.
For Cc1ccc(NC(=O)c2nc(S(=O)(=O)Cc3ccccc3C)ncc2Cl)cc1C the results were Rango-impB inh -0.3%, miR-21 reporter inconclusive and Rango dissoc inh -16%.
CCOc1ccccc1NC(=O)c1ccc(NC(=O)C2CCCO2)cc1 (configuration not stated) was read as Rango-impB inh 2.5%, miR-21 reporter -9% and Rango dissoc inh 7%.
O=C(CSc1nnnn1-c1ccccc1)N1CCN(C(=O)c2ccco2)CC1 was read as GLA inh pH 4.5 2, Rango-impB inh -2.0%, miR-21 reporter 1% and Rango dissoc inh -8%.
For O=C(c1cc2cc3ccc(Cl)cc3nc2o1)N1CCCCCC1 the results were Rango-impB inh 0.4%, miR-21 reporter -56% and Rango dissoc inh 17%.
COc1ccc(/C(C)=N/OCC(=O)N2CC3(C)CC2CC(C)(C)C3)cc1 (configuration not stated) was read as GLA inh pH 4.5 -6, Rango-impB inh 3.6%, miR-21 reporter 0% and Rango dissoc inh 13%.

Reprinted from the part before: 2 compounds, then new ones.
For O=C(c1cc2cc3ccc(Cl)cc3nc2o1)N1CCCCCC1 the results were Rango-impB inh 0.4%, miR-21 reporter -56% and Rango dissoc inh 17%.
COc1ccc(/C(C)=N/OCC(=O)N2CC3(C)CC2CC(C)(C)C3)cc1 (configuration not stated) was read as GLA inh pH 4.5 -6, Rango-impB inh 3.6%, miR-21 reporter 0% and Rango dissoc inh 13%.
`Cc1ccc(-c2[nH]c(=O)n3ccncc23)s1` gave GLA inh pH 4.5 -8, Rango-impB inh inconclusive, miR-21 reporter -2% and Rango dissoc inh inconclusive.
For COc1ccc(Cc2nnc(NC(=O)CS(=O)(=O)Cc3ccccc3)s2)cc1 the results were Rango-impB inh -0.7% and Rango dissoc inh -3%.
CC1=CC(c2ccccc2)n2nc(NC(=O)CCC(=O)O)nc2N1 (configuration not stated) was read as GLA inh pH 4.5 15, Rango-impB inh -3.7%, miR-21 reporter 4% and Rango dissoc inh -16%.
`CN(CC(=O)Nc1cccc(F)c1)C(=O)c1cccc(S(=O)(=O)N2CCN(c3ccccc3)CC2)c1` gave Rango-impB inh 2.7%, miR-21 reporter 24% and Rango dissoc inh 2%.
For COc1ccc(CCNc2oc(COc3ccc(F)cc3)nc2C#N)cc1 the results were GLA inh pH 4.5 -5, Rango-impB inh 3.7%, miR-21 reporter -2% and Rango dissoc inh -7%.
CC(C)(C)c1nnc(NC(=O)CCn2cnc3ccccc3c2=O)s1 was read as GLA inh pH 4.5 12, Rango-impB inh -1.2%, miR-21 reporter -6% and Rango dissoc inh 10%.
`Cc1ccccc1CN1C(=O)C(O)(CC(=O)c2ccncc2)c2ccccc21` (configuration not stated) gave GLA inh pH 4.5 -11, Rango-impB inh -1.5%, miR-21 reporter 2% and Rango dissoc inh -12%.
Screening O=C(c1ccccc1)c1c(O)nc(-c2ccccc2)n(-c2ccccc2)c1=O returned GLA inh pH 4.5 0, Rango-impB inh 0.0%, miR-21 reporter -70% and Rango dissoc inh -4%.
For CC(C)C[C@@H](NC(=O)C1CCC(CNC(=O)[C@@H]2CCCN2C(=O)OC(C)(C)C)CC1)C(=O)O (some centres not stated) the results were Rango-impB inh 2.3%, miR-21 reporter -2% and Rango dissoc inh 3%.

Pulled by structure from the list above:
For COc1ccc(Cc2nnc(NC(=O)CS(=O)(=O)Cc3ccccc3)s2)cc1 the results were Rango-impB inh -0.7% and Rango dissoc inh -3%.
`CN(CC(=O)Nc1cccc(F)c1)C(=O)c1cccc(S(=O)(=O)N2CCN(c3ccccc3)CC2)c1` gave Rango-impB inh 2.7%, miR-21 reporter 24% and Rango dissoc inh 2%.
For COc1ccc(CCNc2oc(COc3ccc(F)cc3)nc2C#N)cc1 the results were GLA inh pH 4.5 -5, Rango-impB inh 3.7%, miR-21 reporter -2% and Rango dissoc inh -7%.

Source: PubChem BioAssay (National Center for Advancing Translational Sciences (NCATS))

This is a subset (hit frequency here may not be typical).
